HIV TAR-Tat = TAR RNA-Tat peptide displacers, HIV-1, primary screen, biochemical, FRET, FAM/TAMRA-labeled Tat; HIV-1 TAR RNA, Tat peptide displacement FRET; active compounds read high; z-score (concentration not given with the values); 100,000 compounds, 0.6% hits; AID 1259389, 2018;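 also: score is relative to mean and SD of negative controls; some compounds called inactive have numbers as strong as hits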
CDC25B-CDK2 inh = primary biochemical HTRF screen for blockers of M-phase inducer phosphatase 2 binding to CDK2/cyclin A; P30305+P24941; HTRF CDC25B-CDK2/CyclinA binding, anti-His/anti-Flag; active compounds read high; z-score (no concentration beside the values); 94,000 compounds, 0.72% hits; AID 1259370, 2018;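 also: score is relative to mean and SD of negative controls; strong numbers were not always called active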
* marks the source's active call; other numbers are inactive results; . = no result given.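 The calls were made as follows: active = z-score from 3 up in half or more of its runs; inactive = the rest.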

Molecule,HIV TAR-Tat,CDC25B-CDK2 inh
COc1ccc(N=N/C(C(C)=O)=C(/C)O)cc1,.,0.06
COc1ccc(NC2=NC(C(=O)Nc3cc(OC)ccc3OC)CC(=O)N2)cc1 (configuration not stated),0.94,.
Cc1ccc(OCc2nc(-c3ccccc3)no2)cc1C,-0.69,-1.1
COc1ccc(-c2noc(COc3ccc(C)c(C)c3)n2)cc1OC,0.26,-0.38
O=C(Cc1noc2ccccc12)Nc1cccnc1,0.35,-0.28
CCC1SC2=NC(C)=C(C(=O)OCCOC)C(c3ccc(OCc4ccccc4)cc3)N2C1=O (configuration not stated),3.5,-0.95
CC(C)(C)c1ccc(C(=O)Nc2c(-c3ccccc3)nc3sccn23)cc1,.,-2.3
CCOC(=O)c1c(NC(=O)COc2ccccc2)sc2c1CC(C)(C)OC2,2,-2.3
CSc1nc2c(cc1C#N)C(=O)CC(C)(C)C2,0.64,-2.8
COCCNc1nc2c(S(=O)(=O)c3ccc(Cl)cc3)nnn2c2ccsc12,-1.4,.
Clc1ccc(OCc2nc3c4c5c(sc4ncn3n2)CCCC5)cc1,-4.2,-0.71
COc1ccc(-c2nc3c(c(SC)n2)Cc2c(CO)cnc(C)c2O3)cc1,2.3,.

The list continues.
Molecule,HIV TAR-Tat,CDC25B-CDK2 inh
Nc1ccc2nc(N3CCN(C(c4ccccc4)c4ccccc4)CC3)cc(C(=O)O)c2c1,0.93,.
Cc1c(C(=O)N2CCCC2)c(S(=O)(=O)Nc2cc(F)ccc2F)c(C)n1C,-0.31,.
COc1ccc2cc3c(nc2c1)N(C(=O)C(C)C)CC3,-1.1,1.5
CCc1ccc(-c2nc3c(c(=O)[nH]2)Cc2cc(Cl)ccc2O3)cc1,1.7,-0.43
COc1ccc(Cl)cc1NS(=O)(=O)c1cc(-c2onc(C)c2C)ccc1OC,-1.6,.
Cc1nc2sc(C(c3cccc(Cl)c3)N3CC(C)CC(C)C3)c(O)n2n1 (configuration not stated),.,-3.1
Cc1cc(C)c(-c2c(Nc3ccc(C(C)C)cc3)c(=O)c2=O)cc1C,0.1,.
NNC(=O)c1snnc1-c1ccccc1,.,-1
COc1ccc(-c2nc3c(c(=O)[nH]2)Cc2cc(Br)cc(OC)c2O3)c(OC)c1,-0.43,-1.9
COc1ccc(-c2ccc(Cc3nc(-c4ccccn4)no3)cc2)cc1,-2.4,.
CCCCCCCC1(C)SC(NC(C)=O)=NN1C(C)=O (configuration not stated),.,-1.1
CCCCN(C)C(=O)Cn1nnc2sc3c(c2c1=O)CCCC3,1.8,-1.7

Going on with the list.
Molecule,HIV TAR-Tat,CDC25B-CDK2 inh
O=C(O)C1SCSCSCS1,.,-0.96
Cc1ccc(NC2=NC(c3ccc(F)cc3)n3c(nc(C)cc3=O)N2)cc1 (configuration not stated),-0.2,0.62
Cc1nc(N2CCCC2)cc(N2CCN(C(=O)c3ccc4c(c3)OCO4)CC2)n1,0.83,0.05
Cc1ccc(-c2onc(C)c2C)cc1S(=O)(=O)N1CCCCC1,1.2,.
CCCSc1nc2c(c(=O)[nH]1)C(c1cccs1)C(C(=O)OC(C)C)=C(C)N2 (configuration not stated),2.7,-1.1
O=C(C1COc2cc(S(=O)(=O)N3CCN(c4ccccc4)CC3)ccc2O1)N1CCCC1 (configuration not stated),-0.7,.
Cc1ccc(Nc2c(-c3ccc(N4CCOCC4)cc3)nc3sccn23)cc1C,-6.4,-1.2
CCCCCCCNCc1ccc(C)s1,0.46,1.3
O=C(NCCCN1CCOCC1)c1ccc(-n2ccc3ccccc32)s1,1.3,.
Cn1nc(C(=O)O)c2c1-c1cc(F)ccc1SC2,1.1,-1.1
CC1CCN(c2nc3ccccc3nc2SCC(=O)N2CCOCC2)CC1,0.61,-0.15
CCCCNC(=S)NNC(=O)CNC(=O)OC(C)(C)C,.,-2

Quoted at random: 5 records from the list.
Molecule,HIV TAR-Tat,CDC25B-CDK2 inh
O=C(Cc1noc2ccccc12)Nc1cccnc1,0.35,-0.28
CSc1nc2c(cc1C#N)C(=O)CC(C)(C)C2,0.64,-2.8
COc1ccc(-c2nc3c(c(=O)[nH]2)Cc2cc(Br)cc(OC)c2O3)c(OC)c1,-0.43,-1.9
COc1ccc(-c2noc(COc3ccc(C)c(C)c3)n2)cc1OC,0.26,-0.38
CCCCCCCNCc1ccc(C)s1,0.46,1.3

Part of the list above in another layout:
compound: COc1ccc(NC2=NC(C(=O)Nc3cc(OC)ccc3OC)CC(=O)N2)cc1 (configuration not stated)
  HIV TAR-Tat = 0.94
  CDC25B-CDK2 inh = .

compound: O=C(O)C1SCSCSCS1
  HIV TAR-Tat = .
  CDC25B-CDK2 inh = -0.96

compound: CCCCCCCNCc1ccc(C)s1
  HIV TAR-Tat = 0.46
  CDC25B-CDK2 inh = 1.3

compound: Cc1ccc(OCc2nc(-c3ccccc3)no2)cc1C
  HIV TAR-Tat = -0.69
  CDC25B-CDK2 inh = -1.1

Next section.
Molecule,HIV TAR-Tat,CDC25B-CDK2 inh
CCOC(=O)C1=C(C)NC2=C(C(=O)C(C(=O)OC)C(C)C2)C1c1cccc(OCc2ccccc2)c1 (configuration not stated),1.4,0.05
COc1ccc(Cl)cc1N1CC(O)=C(c2nc3ccccc3[nH]2)C1=N,1.9,-1
COCCOC(=O)C1=C(C)Nc2nc3ccccc3n2C1c1ccncc1 (configuration not stated),1.6,-1.3
Cc1nn2c3c(cnc2c1-c1ccc(F)cc1)C(=O)CC(c1ccc(F)cc1)C3 (configuration not stated),-0.3,0.85
CCn1cc(S(=O)(=O)c2ccc(Cl)cc2)c(=O)c2cc(F)c(N3CCCC(C)C3)cc21 (configuration not stated),0.52,.
CCc1cc2c3c(c(=O)oc2cc1OCc1cc(C(=O)OC)oc1C)CCCC3,.,-0.75
CCCCNC(=O)OCCSc1ccc(C#N)cc1[N+](=O)[O-],.,-1.3
CSC(=CC(=O)C(C)(C)C)SC,.,-2.4
Cc1ccc(C)c(C2CC(=O)Nc3c2c(C)nn3-c2ccc3nnc(C)n3n2)c1 (configuration not stated),1.1,.
O=[N+]([O-])c1ccc(C2Nc3ccc(F)cc3N2)s1 (configuration not stated),.,-1.2
Cc1nc2ccccc2n2cc3c(=O)n(C)c(=O)n(C)c3c12,.,3.1
O=C(CC1SC(=O)N(Cc2ccccc2)C1=O)Nc1nccs1 (configuration not stated),.,-0.78

(cont.)
Values in the order – HIV TAR-Tat	CDC25B-CDK2 inh
- Cc1cc(CN2C(=O)NC(C)(C)C2=O)c(C)cc1CN1C(=O)NC(C)(C)C1=O
  .	-0.17
- O=C(c1c(F)cccc1F)N1CCN(c2ccc3nnc(-c4ccccc4)n3n2)CC1
  1.8	-1.5
- CCCCC(=O)Nc1noc2ccccc12
  0.77	1
- CCc1nnc2sc(NC(=O)c3ccco3)nn12
  1.5	-1.6
- O=C(CSC1=NS(=O)(=O)c2ccccc2N1)Nc1cc(F)ccc1F
  -0.23	.
- CCOC(=O)CSc1nc(O)cc(=O)[nH]1
  0.32	-1
- CCN(CC)C(=O)c1cc2cc3cc(C)ccc3nc2s1
  -0.6	.
- CC1=C(C(=O)O)N2C(=O)C(NC(=O)c3cnn(C)c3C)C2SC1 (configuration not stated)
  3.6	-1.8
- COc1ccccc1OCCC(=O)O
  1.4	-0.51
- CCN1C(=O)c2cc(C(=O)NCCCN3CCCC3=O)nn2CC1(C)C(=O)NC1CCCC1 (configuration not stated)
  0.74	.
- Cc1c(C(=O)Nc2ccc(F)cc2F)sc2nc3n(c(=O)c12)CCCCC3
  2	.
- Cc1noc(-c2ccc(C)c(S(=O)(=O)Nc3ccc(F)cc3Cl)c2)n1
  1.1	.
- COc1ccc(OCc2cc(=O)n3nc(C)sc3n2)cc1
  -0.34	-1.6
- Cc1ccn2c(=O)c(NC(=O)c3c(F)cccc3F)c(C)nc2c1
  1.4	.
- O=C(c1ccco1)N1CCc2ccccc21
  -0.06	-1
- Cc1cc(C)nc(NC(=O)c2cnc3sccn3c2=O)n1
  .	-0.71
- Cc1ccc(-n2nc(C)c3c(C)cc(C)nc32)cc1
  2.3	-2.2
- COc1ccc2ncc3c(-c4ccccc4)n[nH]c3c2c1
  0.8	-1.7
- CN1CCN(CCCNC(=O)c2cc(-c3cccnc3)nc3ccc(Br)cc23)CC1
  0.26	.
- CCOCCCNC(=O)C1CCCN(S(=O)(=O)N2CC(C)CC(C)C2)C1 (configuration not stated)
  0.95	.
- Cc1cc(Br)ccc1NS(=O)(=O)c1cccc2cccnc12
  .	1.1
- O=C(NCc1ccco1)C1CCCN(c2ncnc3c2nc2n3CCCCC2)C1 (configuration not stated)
  0.42	.
- CCCCc1ccc(NC(=O)CSc2nc(C3CCCCC3)c(C#N)c(=O)[nH]2)c(C)c1
  .	-0.4
- CCC(C)N(CCNC(=O)CC1Oc2ccccc2NC1=O)C1CCCCC1 (configuration not stated)
  -0.2	-4.3
- Cc1ccc(O)c(C2=NOC(O)(C(F)(F)F)C2)c1 (configuration not stated)
  .	0.47
- CC12CN3CC(C)(CN(C1)C31C(=O)Nc3ccccc31)C2=O (configuration not stated)
  .	-0.81
- COc1ccc(C2C=C(c3ccc(F)cc3)Nc3ncnn32)cc1 (configuration not stated)
  -0.47	.
- Cc1cc(C(=O)Nc2ccc3[nH]ccc3c2)no1
  .	1
- O=C(NNC(=S)NCc1ccco1)c1ccc(Cl)cc1Cl
  .	-0.22
- N#Cc1c(NC(=O)COCc2cc(-c3ccco3)on2)sc2c1CCCC2
  0.95	.

Other entries
Values in the order – HIV TAR-Tat	CDC25B-CDK2 inh
- Cc1ccc(OC2=NS(=O)(=O)c3ccccc32)cc1
  -0.53	-2.4
- CCCc1nnc2n1N=C(c1ccccc1)CS2
  1.4	-0.72
- CCc1cc2c(cc3c(=O)n(CC(=O)NCCCN4CCN(CC)CC4)nc(CC)n32)s1
  .	0.2
- CCOC(=O)C1CCCN(S(=O)(=O)c2cc3[nH]c4c(c3cc2CC)C(=O)CC(C)(C)C4)C1 (configuration not stated)
  0.6	.
- CCc1c(C)nc2ncnn2c1Nc1ccc(Br)cc1F
  -0.22	-0.77
- OC1(C(F)(F)F)CC(c2cccs2)=NO1 (configuration not stated)
  .	-2
- COc1ccc(/C=C(\C#N)c2cccs2)c(OC)c1OC
  .	0.58
- CN1CCN(CC(=O)N2c3ccccc3C=Cc3ccccc32)CC1
  0.44	1.4
- Fc1ccc(-c2nc3n(n2)C2(CCCCC2)[C@@H]2CCCC[C@@H]2N3)cc1
  -1.9	0.86
- O=C1CCCc2cc(S(=O)(=O)NCc3ccc(Br)cc3)ccc2N1
  -0.49	.
- Cc1nn(-c2ccc3nnc(C)n3n2)c2c1C(c1ccccc1OCc1cccc(F)c1)CC(=O)N2 (configuration not stated)
  1.3	.
- O=C(c1cc2ccccc2o1)N1CC=C(c2ccccc2)CC1
  .	-1.4
- CC1(C)Cc2c(oc(N)c2C#N)CS1
  .	-1
- COc1ccc(C2C3=C(CCCC3=O)Nc3nc(SCC(C)C)nn32)cc1OC (configuration not stated)
  0.17	-2
- Cc1ccn2c(=O)c(C(=O)NCCCO)c(O)nc2c1
  -0.78	-1.2
- CCOc1ccc(C2Nc3ccccc3-n3cc4c(=O)n(C)c(=O)n(C)c4c32)cc1 (configuration not stated)
  2.8	-1.1
- CC(C)CN(CC(C)C)C(=O)CCNS(=O)(=O)c1ccc2c(c1)c(=O)n(C)c(=O)n2C
  .	1.4
- NC(=O)C1CCN(C(=O)c2cnn3c(C(F)F)cc(-c4ccccc4)nc23)CC1
  0.37	0.85
- CCOC(=O)c1c(C)[nH]c(C)c1S(=O)(=O)N1CCC(C(=O)NCCc2cccs2)CC1
  -0.56	.
- CCCC(=O)Nc1ccccc1SCc1cc(=O)n2nc(C)sc2n1
  1.2	.
- O=C1/C(=C/c2ccccc2)N=C(c2ccccc2)N1/N=C/c1ccccc1
  .	-0.65
- CCOC(=O)N1CCC2(CC1)OC(=O)C(C)=C2C(=O)N1CCOCC1
  1.4	.
- Cn1c(=S)oc2cc(S(=O)(=O)NCc3ccccc3Cl)ccc21
  1.3	.
- CC1CCCN(c2nnc(NC(=O)Nc3cc(F)ccc3F)s2)C1 (configuration not stated)
  0.89	-1.2
- CC(C(=O)N1CCc2ccccc21)n1ccc2cc(S(=O)(=O)N3CCCC3)ccc21 (configuration not stated)
  -0.11	.
- COc1c(C(=O)NNC(=O)c2ccccc2Cl)csc1Br
  .	-0.02
- N/C(=N\OC(=O)Nc1cccc(Cl)c1)c1ccno1
  .	-1.3
- Cc1cccc(NC(=O)C(NC(=O)C2CCCCC2)C(C)C)n1 (configuration not stated)
  -1.7	-0.53
- O=C(Cn1c(=O)oc2cccnc21)c1ccc(Cl)cc1
  .	-1.3
- CC1CCc2nn(CC(=O)Nc3cc(F)ccc3F)cc2C1 (configuration not stated)
  0.82	-1.1

(listing goes on)
Values in the order – HIV TAR-Tat	CDC25B-CDK2 inh
- CSc1cc(-c2ccncc2)nc(-c2ccc(Cl)cc2)c1
  .	-1.8
- C=Cc1ccc(Cn2c(C)c(CNCc3cccs3)c(C(=O)O)c2C)cc1
  -0.19	1.3
- CC(C)c1ccc2c(c1)-c1ccccc1S(=O)(=O)N2CC(=O)N(C)C
  0.78	-0.44
- CC1CCCC(NC(=O)Cn2c(=O)c3cccn3c3cccnc32)C1C (configuration not stated)
  0.67	.
- Cc1cc(C)cc(NC(=O)N2CCN(c3nc4cc(F)ccc4n4cccc34)CC2)c1
  0.5	.
- O=C(c1ccc2c(c1)CCN2S(=O)(=O)c1ccccc1)N1CCCC1
  2.1	-0.44
- Cc1cc(F)ccc1NC(=O)c1oc2c(c1C)-c1[nH]ncc1CC2
  0.37	-0.18
- c1ccc(-n2nnnc2SCCNCc2cccs2)cc1
  2.1	-2.7
